Assay outcomes: PubChem BioAssay, several laboratories
PKD1 kinase inh – inhibitors of human PKD1 kinase, biochemical, fluorescence polarization; Serine/threonine-protein kinase D1 (Homo sapiens), Q15139; PKD1 kinase fluorescence polarization assay; inhibition, %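 (about 10 µM by stock and volumes)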; actives 0.056% (n = 200,000); AID 797, 2007;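 active means inhibition of 50% or more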;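 further: controls were vehicle for no effect and a reference inhibitor for full effect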
HSV augment – enhancers of HSV replication in host cells, fold increase, host cell viability; HSV replication augmentation in cells; maximum fold increase; actives 0.005% (n = 220,000);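 active means peak rise of 1.5-fold or more in the series; inconclusive means self-fluorescent or not available for retest; tested in PC3 cells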;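 further: first round at 10 µM; read as green reporter fluorescence; hits show the peak of a series up to 25 µM; 1 = signal of infected wells without compound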
GALR2 ag – GALR2 receptor agonists, primary screen, cell-based; Galanin receptor type 2 (Homo sapiens), O43603; AID 803, 2007; GALR2-expressing cells, agonist activation read-out; activation, %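 (tested at 5 µM)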; actives 0.48% (n = 140,000);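 active means above mean plus 3 SD of all compounds, about 5% in these data, not always enough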;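 further: 0% = vehicle buffer wells and 100% = reference agonist at full effect; tested in CHO reporter cells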
Target sequence (O43603 whole entry, looked up): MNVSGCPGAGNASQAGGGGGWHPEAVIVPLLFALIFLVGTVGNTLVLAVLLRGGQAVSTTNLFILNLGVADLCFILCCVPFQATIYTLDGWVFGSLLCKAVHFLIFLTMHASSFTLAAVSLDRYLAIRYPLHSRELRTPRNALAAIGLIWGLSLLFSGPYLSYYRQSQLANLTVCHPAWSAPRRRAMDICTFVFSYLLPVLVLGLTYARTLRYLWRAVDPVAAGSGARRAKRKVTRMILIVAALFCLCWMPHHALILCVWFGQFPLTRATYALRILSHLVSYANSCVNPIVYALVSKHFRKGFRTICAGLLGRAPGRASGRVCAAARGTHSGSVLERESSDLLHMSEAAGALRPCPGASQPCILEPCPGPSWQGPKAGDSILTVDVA
Insulin prom inh – inhibitors of insulin promoter-driven GFP, primary screen, imaging, TRM-6 cells (human fetal islet line), eGFP reporter, cell count; reporter expression induced with tamoxifen; inhibition, % at 2 µM; actives 0.9% (n = 130,000); AID 1273, 2008;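 active means inhibition above the mean plus 3 SD, with well images judged a real hit on visual review, cut at about 60% in these data, passing the limit was not always enough; inconclusive means inhibition over the cutoff but images rejected on review; inactive means inhibition not above the cutoff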
RGS16-Gao – modulators of RGS16 binding to Galphao, primary screen, biochemical, human proteins, multiplexed bead flow cytometry; Regulator of G-protein signaling 16 (Homo sapiens) + Guanine nucleotide-binding protein …; bead-based flow cytometry RGS16-Galphao binding, fluorescence; actives lie on both sides; binding response (% of control), % at 10 µM; actives 0.38% (n = 220,000);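 active means below 25% or above 175%, edge rows of some plates excepted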;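 further: Galphao activated by GDP with aluminum fluoride before binding; 100% = wells without compound and 0% = beads without RGS; some results beyond the cut were filed as inactive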
Target sequence (O15492 whole entry, looked up): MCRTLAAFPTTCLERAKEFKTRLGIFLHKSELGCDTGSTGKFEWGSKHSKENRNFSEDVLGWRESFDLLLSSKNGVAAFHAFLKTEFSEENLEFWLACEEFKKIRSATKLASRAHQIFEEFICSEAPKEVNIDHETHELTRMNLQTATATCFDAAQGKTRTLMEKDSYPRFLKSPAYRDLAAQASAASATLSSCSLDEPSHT
Target sequence (P09471 whole entry, looked up): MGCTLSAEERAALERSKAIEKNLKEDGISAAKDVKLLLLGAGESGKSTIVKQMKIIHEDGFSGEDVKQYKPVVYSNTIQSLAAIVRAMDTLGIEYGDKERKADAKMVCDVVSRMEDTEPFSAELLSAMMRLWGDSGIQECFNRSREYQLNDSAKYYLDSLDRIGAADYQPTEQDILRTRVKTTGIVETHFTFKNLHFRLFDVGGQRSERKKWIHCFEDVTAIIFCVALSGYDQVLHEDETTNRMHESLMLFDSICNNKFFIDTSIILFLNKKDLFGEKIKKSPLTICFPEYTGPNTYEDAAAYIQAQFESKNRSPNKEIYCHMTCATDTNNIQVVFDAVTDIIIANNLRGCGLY
Insulin prom inh cell count – second read-out of Insulin prom inh, no call of its own (marks repeat the call); normalized cell count, %; measured here: cell count, toxicity; reference of the scale not given here;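 cells exposed to compound for 48 h; stained nuclei by imaging scaled within each plate; lower means fewer cells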
HSV augment primary fold – second read-out of HSV augment, no call of its own (marks repeat the call); fold increase; compound at 10 µM; measured here: primary screen fold increase 10 uM; tested in PC3 cells;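 GFP signal in the first replicate; 1 = infected wells without compound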
Active calls of the source: *; i = inactive; ? = inconclusive; · = not tested or not shown.

SMILES	PKD1 kinase inh	HSV augment	HSV augment primary fold	GALR2 ag	Insulin prom inh	Insulin prom inh cell count	RGS16-Gao
Cc1cccc(NC(=O)c2ccc(C3SCC(=O)N3CCc3ccccc3)cc2)c1C (centres undefined)	4	i	0.85	-2.4	-11	80	104
Cn1cnnc1SCC(=O)NCc1ccccc1	5	i	1.1	·	35	88	99
O=C(c1ccc(OC2CCN(CCc3ccccc3)CC2)cc1)N1CCCC(CO)C1 (centres undefined)	-5	i	1.1	·	·	·	98
COCCCNC(=S)NCCNc1nc2cc(C)cc(C)c2cc1C#N	-6	i	0.93	·	·	·	113
O=[N+]([O-])c1cc(/C=N/N/C(=N/c2ccccn2)c2ccccn2)ccc1O	5	i	1	·	·	·	101
S=c1[nH]nc(COc2ccccc2)n1/N=C/C(Cl)=C/c1ccccc1	14	i	0.7	-0.9	3	80	101
Cc1ccccc1OC(C)C(=O)NCc1cccnc1 (centres undefined)	1	i	0.94	·	-20	51	104
O=C(CCc1ccccc1)NNc1cc(N2CCCCC2)nc(N2CCCCC2)n1	-5	i	0.95	·	·	·	102
O=C(CCN1C(=O)C2C3CCC(C3)C2C1=O)Nc1ccc([N+](=O)[O-])cc1 (centres undefined)	-3	i	1.1	·	-61	144	93
CCOc1ccc(CSC2=NCCN2)cc1[N+](=O)[O-]	-6	i	0.71	1.4	17	123	102
CCn1c2ccccc2c2cc(NC(=O)Nc3ccc([N+](=O)[O-])cc3C)ccc21	·	i	0.73	·	·	·	97
Cc1nc(NCC2CCCO2)nc2c1C(=O)CC(C)(C)C2 (centres undefined)	-2	i	0.88	-0.2	-33	86	105
CCC1=NN(C(=O)Cc2ccc(OC)cc2)C(O)(C(F)(F)F)C1 (centres undefined)	-10	i	0.83	-1.9	-96	103	93
Cc1ccc2[nH]c(=O)c(C3C(C#N)=C(N)Oc4c3ccc3cccnc43)cc2c1 (centres undefined)	-11	i	0.92	-1.8	54	121	95
O=C(/C=C1\C(=O)Nc2ccccc21)/C=C1\C(=O)Nc2ccccc21	·	i	0.78	·	·	·	80
CS(=O)(=O)N(CC(=O)O)c1ccc(Oc2ccccc2)cc1	-5	i	0.83	-3.0	47	154	107
CCN(CC(=O)Nc1ccc2c(c1)CCC2)Cc1nc2ccccc2c(=O)[nH]1	-6	i	0.91	0.2	0	111	112
CC(=O)Nc1ccc(OCC(O)Cn2c(C)nc3ccccc32)cc1 (centres undefined)	2	i	0.94	-1.0	-8	110	98
COc1ccc(NC(=O)N2CCCC(c3nc(-c4ccc(OC)cc4)no3)C2)cc1 (centres undefined)	3	i	0.98	·	·	·	106
Cc1ccc(CNC(=O)CNC(=S)N(Cc2ccccc2)Cc2ccccc2F)cc1	2	i	1	·	·	·	98
Cc1ccc(C(=O)NC2CCCCCC2)o1	-3	i	0.86	-1.8	52	136	101
Cc1cc(C)c(C(=O)Cn2cnc3cc([N+](=O)[O-])ccc3c2=O)cc1C	2	i	0.94	·	0	92	105
COc1cc(OC)c(NC(=O)c2cccc(F)c2)cc1Cl	6	i	0.81	-0.4	-62	118	105
C=CCn1c(COc2ccccc2F)nnc1SCC(=O)Nc1cc2oc3ccccc3c2cc1OC	-3	i	0.85	-0.3	-6	79	101
N#Cc1cc2c(ccc3ccccc32)oc1=O	-5	i	0.98	·	·	·	95
CCc1ccc(NC(=O)N(CCCN2CCOCC2)C(C)c2cc3cccc(OC)c3o2)cc1 (centres undefined)	3	i	0.96	0.5	-22	66	112
O=C(CSc1nnc(-c2ccco2)o1)NC(=O)Cc1ccccc1	-3	i	1	-0.4	14	140	108
Cc1ccc(OCC(=O)Nc2ccc(S(=O)(=O)Nc3ccccn3)cc2)c(C)c1	5	i	1	-1.2	18	96	107
Cc1nn(CCc2n[nH]c(=S)n2C)c(C)c1Br	-10	i	0.93	-2.0	22	114	101
CCN(CC)S(=O)(=O)c1cccc(-c2n[nH]c(=S)n2Cc2ccccc2)c1	4	i	1	·	·	·	97
O=C(CSc1ccc([N+](=O)[O-])cn1)Nc1ccc(N2CCOCC2)cc1	8	i	0.81	·	·	·	104
O=C(COC(=O)c1ccc(O)cc1)Nc1cccc(S(=O)(=O)NC2=NCCCCC2)c1	·	i	1	·	·	·	105
Cc1cccc2sc(NC(=O)c3ccc(Cl)s3)nc12	4	i	0.94	-2.5	·	·	101
O=C(Cn1c(Cc2ccccc2)nc2ccccc21)NCc1ccc2c(c1)OCO2	3	i	1	-0.5	·	·	100
O=C(COc1ccc(Cl)cc1)NCCN1CCCCC1	0	i	1	·	-23	116	98
CC1CN(c2nc3c(c(=O)n(C)c(=O)n3C)n2Cc2c(F)cccc2Cl)CC(C)O1 (centres undefined)	-6	i	0.91	-1.2	·	·	104
COC(=O)[C@@H](NC(=O)N1CCC(C)CC1)C(C)C	·	i	1.1	·	·	·	100
Cc1ccc(-c2cc(C(=O)Nc3nccs3)c3ccccc3n2)c(C)c1	-2	i	1.2	-0.7	-76	140	101
COc1cc(OC)cc(C(=O)Nc2ccc([N+](=O)[O-])cn2)c1	-10	i	1	0.0	-19	42	107
COc1ccccc1-c1nc(NC(C)=O)n[nH]1	2	i	0.93	-1.0	·	·	102
COc1cc2c3c(c1)C(C)CC(C)(C)N3C(=O)C2=O (centres undefined)	4	i	0.95	·	-23	71	102
CCOC(=O)C1CCCN(c2nc3ccccc3nc2C(C#N)C(=O)OC(C)C)C1 (centres undefined)	-3	?	·	-3.4	·	·	117
CCN(CC)CCCN(Cc1cc2cc(OC)c(OC)cc2[nH]c1=O)C(=O)Nc1ccccc1	3	i	0.72	-1.2	-22	89	101
NC1=NC(=O)C2(COC(c3cccc([N+](=O)[O-])c3)OC2)S1 (centres undefined)	1	i	1.1	·	·	·	101
CCOC(=O)c1ccc(S(=O)(=O)NNC(=O)COc2cccc(C)c2)cc1	-9	i	1	0.1	58	119	122
CC(=O)c1ccc(NC(=O)COc2ccc3c(c2)OCO3)cc1	6	i	0.96	·	·	·	99
COc1ccc(NC(=O)COc2ccc(C(=O)OCC(=O)N(C(C)C)C(C)C)cc2OC)cc1	3	i	0.93	·	64	93	85
CCOc1cc(N2C(=O)CC3CS(=O)(=O)CC32)c(OCC)cc1NC(=O)c1ccccc1 (centres undefined)	-9	i	0.95	-0.2	-19	112	104
CC(=O)c1ccc(NC(=O)CSc2nnc(Cc3cccn3C)n2-c2ccc(F)cc2)cc1	0	i	1	-0.8	·	·	107
Cc1ccc(-c2[nH]nc3c2C(c2ccccc2OC(=O)N2CCOCC2)C(C#N)=C(N)O3)cc1 (centres undefined)	-4	·	·	-3.5	·	·	87
CCN1CCN(CC(O)COc2ccc(Cl)cc2)CC1 (centres undefined)	-5	i	1.3	-1.3	-28	120	115
Clc1ccc(-c2nc(Cc3ccccc3Cl)no2)cc1	-5	i	0.92	-4.6	-57	68	95
COc1ccc(NC(=O)/C(C#N)=C/c2ccc(Sc3nncn3C)c([N+](=O)[O-])c2)cc1	-1	i	0.89	·	·	·	99
CCOC(=O)c1c(NC(=S)NCCc2ccccc2)sc2c1CC(C(C)C)OC2 (centres undefined)	-4	i	1	-1.2	·	·	101
O=C(NCCN1C(=O)S/C(=C\c2cccnc2)C1=O)c1cccc(OC(F)F)c1	-6	i	1	-1.2	-27	74	89
COC(=O)c1nc(N)sc1-c1ccc(OC)cc1	2	i	0.97	-0.9	-9	102	108
Cc1cccc(N2CCN(C(=O)c3cnn4c(C(F)F)cc(-c5ccccc5)nc34)CC2)c1C	-3	i	0.7	-1.9	·	·	102
O=C(NCCCc1ccccc1)c1cccc([N+](=O)[O-])c1	-5	i	0.97	-0.7	10	181	102
CCCCOc1ccc2c(c1)C(=O)c1cc(O)ccc1-2	6	i	1	·	·	·	96
CN1C=CC=C/C1=C1\SC(=S)N(Cc2ccccc2)C1=O	-1	i	0.94	·	12	54	100
Continuation.
SMILES	PKD1 kinase inh	HSV augment	HSV augment primary fold	GALR2 ag	Insulin prom inh	Insulin prom inh cell count	RGS16-Gao
O=C1CC(Nc2ccccc2)C(=O)N1CCc1ccccc1 (centres undefined)	2	i	0.99	-0.8	-36	112	101
CC(C)(Sc1cc(C(C)(C)C)c(O)c(C(C)(C)C)c1)Sc1cc(C(C)(C)C)c(O)c(C(C)(C)C)c1	-11	i	0.82	-0.3	52	110	101
C(=N\n1cnnc1)/c1ccccc1OCCOc1ccccc1	-1	i	0.93	-4.5	·	·	106
O=C(CCNC(=O)Cn1ccc2ccccc2c1=O)NCC1CCCC1c1ccccc1 (centres undefined)	-5	i	1	·	·	·	102
Cc1cc(C)c2oc(C(=O)Nc3ccc(S(=O)(=O)N4CCC(C)CC4)cc3)cc(=O)c2c1	-5	i	1	-0.7	-8	53	151
CCN(CC)C(=O)C(=O)N/N=C/c1cccs1	-8	i	0.95	-1.5	-26	55	105
O=C(COc1ccc(Cl)cc1)NCCSCc1ccccc1Cl	15	i	1	0.7	-10	84	147
Cc1ccc(S(=O)(=O)NCCC(=O)OCC(=O)NC(=O)c2cccn2C)cc1	·	i	0.85	·	·	·	100
CC(C)c1nnc(NC(=O)c2cc3cc(Br)ccc3oc2=O)s1	·	i	0.99	·	·	·	98
COc1cc(OC)cc(C(=O)OCc2ccc([N+](=O)[O-])cc2)c1	-2	i	0.94	·	-29	135	93
CCNC(=O)COC(=O)c1[nH]c(C)c(C(=O)OC)c1C	-5	i	0.92	·	·	·	102
CSc1ccc(-c2nnn(Cc3ccc(Br)cc3)n2)cc1	-6	i	1	-1.1	22	79	101
CCOC(=O)C(C)(C)Sc1ncnc2nc[nH]c12	-8	i	0.86	-1.3	i	40	101
Cn1cnnc1SCC(=O)Nc1ccc(F)cc1F	-1	i	0.92	·	-6	104	99
CCOC(=O)C1=C(C)NC(=NC)SC1c1ccccc1 (centres undefined)	4	i	0.98	·	·	·	74

Compound profiles, as listed above. Values in the order: PKD1 kinase inh | HSV augment | HSV augment primary fold | GALR2 ag | Insulin prom inh | Insulin prom inh cell count | RGS16-Gao
CCNC(=O)COC(=O)c1[nH]c(C)c(C(=O)OC)c1C reads -5 | i | 0.92 | · | · | · | 102
Cc1ccc(S(=O)(=O)NCCC(=O)OCC(=O)NC(=O)c2cccn2C)cc1 reads · | i | 0.85 | · | · | · | 100
Cn1cnnc1SCC(=O)Nc1ccc(F)cc1F reads -1 | i | 0.92 | · | -6 | 104 | 99
CSc1ccc(-c2nnn(Cc3ccc(Br)cc3)n2)cc1 reads -6 | i | 1 | -1.1 | 22 | 79 | 101
CC(C)(Sc1cc(C(C)(C)C)c(O)c(C(C)(C)C)c1)Sc1cc(C(C)(C)C)c(O)c(C(C)(C)C)c1 reads -11 | i | 0.82 | -0.3 | 52 | 110 | 101

(cont.)
SMILES	PKD1 kinase inh	HSV augment	HSV augment primary fold	GALR2 ag	Insulin prom inh	Insulin prom inh cell count	RGS16-Gao
Cc1ncoc1C(=O)N1CCCC(C(=O)c2cccc3ccccc23)C1 (centres undefined)	-9	i	0.93	·	·	·	104
Cc1nn2c(-n3ccnc3C)c3c(nc2c1-c1ccccc1)CCC3	-9	i	1	-1.2	-4	108	123
COc1ccc(C2Nc3ccccc3C(=O)N2NC(C)=O)cc1OC (centres undefined)	-2	i	0.99	·	0	88	100
CCOc1ccc(N2Nc3n[nH]c(N)c3N2)cc1	-6	i	0.94	-1.8	-131	125	81
Cc1ccc(N2CCN(CC(O)COc3cccc(C)c3)CC2)cc1 (centres undefined)	·	i	0.91	·	·	·	101
CN1CCN(c2ccc(NC(=O)c3cccc(OCc4ccccc4)c3)cc2)CC1	1	·	·	-1.5	-14	143	100
COc1cc(/C=N/Nc2ccc(C)cc2)cc(Br)c1O	-3	i	0.95	·	27	87	99
O=S(=O)(NC(=S)NC1CCCCC1)c1ccc(Br)cc1	0	i	1.1	·	10	82	95
COCCCNC(=S)NNC(=S)Nc1ccc(F)cc1F	-8	i	1.1	-1.6	29	99	103
COc1ccc2cc(Br)ccc2c1CC(=O)NC(C)(C)C	-1	i	0.88	-0.2	0	93	107
Cc1ccccc1C(=O)Nc1nc(-c2cccnc2)cs1	·	i	1	·	·	·	92
CN(Cc1ccccc1)C(=O)c1ccccc1Br	-6	i	1.1	-0.1	15	153	105

The order is random; any-hit rate near 1.3%.
